Bioassay records from PubChem BioAssay.
Sfp inh: qHTS Assay for Inhibitors of Bacillus subtilis Sfp phosphopantetheinyl transferase (PPTase). actives 3.5% (n = 310,000). 4'-phosphopantetheinyl transferase ffp (Bacillus subtilis), Q9F4F7. Biochemical Sfp PPTase activity, qHTS. Potency, µM, inactives show max response, negative = inhibition, usual class: inhibitors. AID 1490, 2009; active = well fitted inhibition curve with a large enough effect; inconclusive = small, poorly fitted or top-dose-only effect, or another doubt; inactive = no such curve, though single readings can be large or run the other way;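 note: the enzyme is Sfp with the accession as filed and its product quenches rhodamine fluorescence; potency is the fitted concentration of half-maximal effect; 0% = enzyme reaction without inhibitor and -100% = no enzyme wells; top concentration of the series not given in the record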
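Sfp 15 nM + cpd, 15 min RT; start w/ rhodamine-CoA 5 uM, BHQ-2-YbbR 12.5 uM (final); 50 mM Hepes pH 7.6, 10 mM MgCl2, 0.01% NP-40, 0.01% BSA; read 525/598 nm at 0 and 30 min.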
ClpP mod: qHTS Assay for Activators of ClpP | ATP-dependent Clp protease proteolytic subunit (Bacillus subtilis (strain 168)), P80244 | purified B. subtilis ClpP, FRET peptide cleavage, 20 min | Potency, µM (top dose mostly 57.5 µM), for the others: at the highest dose activity change, negative = active | actives 1.9% (n = 340,000) | AID 651965, 2013; active = well fitted falling curve with a large enough effect; inconclusive = small, poorly fitted or top-dose-only effect; inactive = no such curve, though single readings can be large or run the other way; note: potency is the fitted concentration of half-maximal effect; the source files actives as falling curves though it sought activators and does not explain the sign; nearly all actives have a fitted effect of over 65% in size; many hits overshoot -100%
Target sequence (P80244 whole entry, looked up): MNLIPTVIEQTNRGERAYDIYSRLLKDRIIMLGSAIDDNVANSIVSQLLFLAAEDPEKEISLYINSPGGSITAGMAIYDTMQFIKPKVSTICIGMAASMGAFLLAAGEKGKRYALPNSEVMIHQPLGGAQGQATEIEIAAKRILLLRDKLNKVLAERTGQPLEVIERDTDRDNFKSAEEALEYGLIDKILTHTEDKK
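FRET quenching reversal measured ClpP activation: 10 microg/mL B. subtilis ClpP at pH 8 with the FRET-FV decapeptide, read at 430 nm after 320 nm excitation. The 20-min minus 0-min signal was scaled between DMSO/no-enzyme wells and ADEP (5.8 microM final).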
CtBP-E1A blk: qHTS Assay for Inhibitors of the CtBP/E1A Interaction; CtBP / adenovirus E1A interaction (AlphaScreen); AlphaScreen GST-E1A/His-CtBP binding, 1536-well; stronger effect = lower value; control for the full effect not named in the record; activity change, % (test concentration not listed); actives 0.49% (n = 340,000); AID 651724, 2012; in the data active means activity change below about -65%; inconclusive means about -30% to -65%; inactive means above about -30%; note: % is set by controls: 0 for no effect and ±100 for the full control effect; compound concentration not given in the record
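Steps: dispense buffer (Tris pH 8.0, NaCl 300 mM, TCEP 1 mM, BSA, Tween 20); add 5X protein mix (GST-E1A, His-CtBP, 125 nM each); pin 23 nL compound; 2 h at 37 °C, dark; add 5X beads (50 ug/mL); 1 h; read.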
gsp antagonist: qHTS for Antagonists of gsp, the Etiologic Mutation Responsible for Fibrous Dysplasia/McCune-Albright Syndrome: qHTS. gsp-mutant cells, cAMP HTRF, 30 min; control for the full effect not named in the record. Potency, µM (doses to about 76.9 µM), without a hit: top-dose activity change, negative = inhibition, most hits filed as inhibitors. actives 0.4% (n = 340,000). AID 624288, 2012; active = falling curve of any shape with a large fitted effect; inconclusive = falling curve, mostly with a smaller effect; inactive = flat or rising curve; cell line not stated here;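 note: intracellular cAMP measured with PDE inhibitor Ro 20-1724 present during compound exposure; potency is the fitted concentration of half-maximal effect; % is set by controls: 0 for no effect and ±100 for the full control effect; nearly all actives have a fitted effect of over 65% in size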
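HTRF cAMP measurement after 30 min RT detection following 30 min, 37C compound treatment alongside […] (added as 300 uM solution) in G418-selected cells seeded at 2000/well and grown 16–24 h.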
TRPV1 potentiator: HTS Assay for Compounds that Act as Potentiators of the Vanilloid Receptor 1; actives 0.02% (n = 320,000); TRPV1-expressing cells, Fluo-8 calcium influx, capsaicin EC20 potentiation; host cell line not named in the record; control for the full effect not named in the record; Transient receptor potential cation channel subfamily V member 1 (Homo sapiens), Q8NER1; potentiation, % at 8.33 µM; active means potentiation above 80%; inconclusive means 30% to 80%; inactive means below 30%; note: 0% is about no effect
Target sequence (Q8NER1 whole entry, looked up): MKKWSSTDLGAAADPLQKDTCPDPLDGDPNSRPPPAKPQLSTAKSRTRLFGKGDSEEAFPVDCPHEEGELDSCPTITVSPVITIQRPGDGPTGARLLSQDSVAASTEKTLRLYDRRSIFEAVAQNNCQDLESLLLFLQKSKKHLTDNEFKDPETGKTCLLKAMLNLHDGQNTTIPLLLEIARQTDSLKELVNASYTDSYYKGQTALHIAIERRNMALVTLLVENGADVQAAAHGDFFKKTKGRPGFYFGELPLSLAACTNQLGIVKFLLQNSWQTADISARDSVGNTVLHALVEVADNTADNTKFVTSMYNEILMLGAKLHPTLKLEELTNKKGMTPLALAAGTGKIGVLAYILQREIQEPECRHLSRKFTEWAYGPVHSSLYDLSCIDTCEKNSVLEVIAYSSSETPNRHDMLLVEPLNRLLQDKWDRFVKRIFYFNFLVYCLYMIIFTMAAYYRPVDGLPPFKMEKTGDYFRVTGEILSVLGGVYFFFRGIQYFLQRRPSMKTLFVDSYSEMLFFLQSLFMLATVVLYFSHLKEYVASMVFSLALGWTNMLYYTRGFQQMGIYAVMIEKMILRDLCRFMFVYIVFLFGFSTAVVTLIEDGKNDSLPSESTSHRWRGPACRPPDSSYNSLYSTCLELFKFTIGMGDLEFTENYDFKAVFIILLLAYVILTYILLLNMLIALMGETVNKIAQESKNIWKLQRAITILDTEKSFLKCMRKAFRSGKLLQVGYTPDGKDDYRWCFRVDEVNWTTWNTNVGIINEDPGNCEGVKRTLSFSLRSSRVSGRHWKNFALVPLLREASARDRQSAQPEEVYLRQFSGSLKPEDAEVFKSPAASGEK
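TRPV1-expressing cells were cultured overnight at 35.5C and loaded with Fluo-8 calcium dye for 40 to 90 min at room temperature. After a 10 s baseline, compound was added and calcium influx was read kinetically for 3 min (ex 480/em 520 nm).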
gsp ag: qHTS for Agonist of gsp, the Etiologic Mutation Responsible for Fibrous Dysplasia/McCune-Albright Syndrome: qHTS; Potency, µM (highest dose often 76.9 µM), for the others: at the highest dose activation (cAMP increase), hits mostly activators; gsp mutant cells, cAMP HTRF, 30 min; control for the full effect not named in the record; actives 0.13% (n = 340,000); active = well fitted activation curve with a large enough effect; inconclusive = small, poorly fitted or top-dose-only effect, or another doubt; inactive = no such curve, though single readings can be large or run the other way; cell line not stated here;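 note: phosphodiesterase inhibitor Ro 20-1724 added with compounds to block cAMP breakdown; potency is the fitted concentration of half-maximal effect; nearly all actives have a fitted effect of over 60% in size; about a fifth of the inactives were tested at one dose only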
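Cells in DMEM/10% FBS with G418 were pretreated with compounds in DMSO plus […] (300 uM stock) for 30 min at 37C. cAMP was measured by HTRF (cAMP-d2 plus anti-cAMP antibody-K) after 30 min at room temperature.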
Menin-MLL FL inh: qHTS Assay for Inhibitors Targeting the Menin-MLL Interaction in MLL Related Leukemias: Competition With Fluorescein Labeled MLL-derived Peptide; Fluorescence polarization, fluorescein-MLL peptide displacement from menin; FP activity change, % at 61.4 µM; 290,000 tested, under 10 active; AID 1766, 2009; inconclusive = falling polarisation curve, or a change in total fluorescence; inactive = total fluorescence flat and polarisation flat or rising; no compound was filed as active; the % refers to the polarisation; negative = inhibition;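 note: % of control where 0% means no effect; inhibitors lower the polarisation; unlabelled MLL peptide was the positive control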
Active calls of the source: *; ? = inconclusive; / = no result given; [ ] = remark or other dose.

Structure	Menin-MLL FL inh	Sfp inh	gsp antagonist	gsp ag	TRPV1 potentiator	CtBP-E1A blk	ClpP mod
CN(C)S(=O)(=O)c1ccc(C(=O)NNc2nc(-c3ccccc3)c3cc(Br)ccc3n2)cc1	3.6	3%	-14%	-19%	15	4	-4.6%
Cc1cc(NC(=O)CSc2ncc(C(=O)O)n2-c2ccc(F)cc2)no1	/	/	8%	-14%	/	/	0.1%
C=CCn1c(SCC(=O)Nc2c(C)n(C)n(-c3ccccc3)c2=O)nc2scc(-c3ccccc3)c2c1=O	-1.1	16%	-17%	0%	5	-15	-4.3%
CCN(C(=O)CSc1nnnn1-c1ccccc1)c1c(N)n(Cc2ccccc2)c(=O)[nH]c1=O	-0.6	-19%	19%	?	-17	-3	1.5%
COc1ccc(-c2c(-c3ccc(OCC(=O)NN)cc3O)n[nH]c2C)cc1OC	-2.0	3%	-2%	-41%[inhibitor][15.4 µM]	8	-2	/
O=C1CN(C(=O)COC(=O)CNC(=O)c2ccc(Br)o2)c2ccccc2N1	1.4	-2%	4%	-2%	8	13	/
O=S(=O)(Nc1nccs1)c1ccc(Nc2nnc(-c3ccccc3)c3ccccc23)cc1	8.2	?	-5%	-22%[15.4 µM]	-13	?	-15%
COc1cccc(CNC(=O)C2CCN(S(=O)(=O)N3CCCC3)CC2)c1	-3.4	12%	7%	-54%[inhibitor]	-3	10	0.2%
COc1ccccc1CNC(=O)C(C)Sc1ccsc1[N+](=O)[O-] (centres undefined)	0.0	7%	-4%	-2%[15.4 µM]	-1	0	/
O=C1SC(Cc2ccccc2)C(=O)N1c1ccccc1 (centres undefined)	6.6	20%	7%	-13%[15.4 µM]	9	17	-1.4%
COc1ccc(CC(NC(C)=O)C(=O)NC2CCN(c3nnnn3-c3ccccc3)CC2)cc1OC (centres undefined)	-1.0	25%	/	/	5	/	/
C=C1CCN([C@@H](Cc2ccccc2)C(=O)O)S(=O)(=O)c2ccccc21	/	/	5%	/	/	-11	-4.3%
COC(/C=C/Nc1ccc(C)cc1)=C(C#N)C#N	0.3	3%	6%	-40%[inhibitor]	21	4	-1.6%
CCn1ncc(/C=N\NC(=O)c2cc(-c3ccc(C)cc3C)nc3ccccc23)c1C	2.3	2%	20%	-28%	0	-5	-1.9%
NC(=O)COC(=O)c1cccnc1Nc1ccccc1F	-1.2	6%	10%	-14%[15.4 µM]	2	10	/
COc1ccc(F)c(CN(C)CC2CCCN(CCc3ccc(F)cc3)C2)c1 (centres undefined)	1.8	9%	7%	-26%	-6	-14	/
COc1ccc(C(=O)c2sc(Nc3ccccc3F)nc2N)cc1	-1.8	-17%	7%	-16%	-9	/	-1.4%
O=C(Nc1cccc(-c2cccc(Cl)c2)c1)C1CCN(Cc2ccon2)CC1	1.8	-12%	-22%	-14%	-19	-3	-1.6%
COc1ccc(C2CC(c3ccc(OC)cc3OC(C)=O)=NN2C(=O)c2ccccc2)cc1 (centres undefined)	0.0	-7%	-24%	16%[15.4 µM]	-8	-11	-7.0%
Cc1ccsc1C(=O)OCC(=O)Nc1c(Cl)cccc1C(F)(F)F	0.0	-3%	7%	6%	9	24	-9.8%
CC(C)Cn1c(N)c(C(=O)NCC2CCCO2)c2nc3ccccc3nc21 (centres undefined)	9.4	-2%	3%	-11%	-10	50	28µM*
CC(C)C[C@H](NC(=O)c1nc[nH]c1C(=O)NCCCCCNC(=O)OC(C)(C)C)C(=O)OCc1ccccc1	-0.8	26%	-23%	/	2	-2	1.3%
CCc1ccc(-c2nc(CN3CCC(C(=O)NCc4ccc(F)cc4)CC3)c(C)o2)cc1	-2.3	?	13%	-13%	-5	24	0.9%
O=C(NNC(=O)c1ccc(Cl)cc1Cl)c1ccc2ccccc2c1	/	/	8%	23%	/	-15	/
O=C(Cc1csc(-c2ccc(Cl)cc2)n1)Nc1cccc(S(=O)(=O)NC2=NCCC2)c1	/	/	10%	-1%	26	-27	-9.2%
CSc1ccccc1NC(=O)C1CCN(S(C)(=O)=O)CC1	0.1	22%	9%	-12%	-9	-8	2.2%
CC(C)(C)c1ccc(C(=O)NCC(=O)N2CCC3(CC2)NCCc2[nH]cnc23)cc1	0.8	4%	14%	-3%	-4	1	-0.6%
O=C(O)c1cccc(Cn2c(Cl)c(/C=N/NC(=O)c3ccccc3O)sc2=O)c1	19	12%	-2%	29%	/	-21	-3.2%
Cn1cc([N+](=O)[O-])c(C(=O)Nc2cnn(Cc3ccc(F)cc3)c2)n1	3.6	12%	14%	-22%	2	5	-0.5%
CCCCCCCC(=O)NNC(=O)c1ccc([N+](=O)[O-])cc1	0.4	19%	12%	3%	-10	2	-0.5%
CCOc1cc(C(=O)N(C)c2ccccc2)cc(OCC)c1OCC	0.9	11%	6%	11%	-7	-2	1.1%
Cc1ccccc1NCC(=O)N/N=C/c1c(C)c(C(=O)c2ccc(Cl)cc2)n2ccccc12	8.9	0%	-13%	3%	-8	9	1.1%
O=C(NNC(=O)c1ccccn1)c1ccc(OC(F)F)cc1	/	/	6%	32%[15.4 µM]	/	-78*	-12%
Cc1ccccc1C1CCCN(Cc2nc(CC3CC3)no2)C1 (centres undefined)	0.8	0%	-9%	8%	-14	14	/
Cc1ccc(NC(=O)CSC2=C(C#N)C(c3ccco3)C3=C(CC(C)(C)CC3=O)N2)cc1 (centres undefined)	2.9	7%	?	-18%	12	-1	-8.4%
COc1ccc(S(=O)(=O)N2CCCC2)cc1Br	0.4	-5%	6%	-4%[15.4 µM]	-13	10	-1.3%
O=C(CN1CCN(CC(=O)Nc2ccccc2Cl)CC1)NCC1(N2CCOCC2)CCCCC1	/	/	-17%	4%	3	-1	1.6%
CC[C@@H](C)C(C(=O)N1CCN(C(=O)OC(C)(C)C)CC1)n1cc(-c2cn([C@@H](C)C(=O)N3CCN(C(=O)OC(C)(C)C)CC3)nn2)nn1 (some centres undefined)	-0.8	-4%	9%	/	6	-4	-2.4%
CCn1ncc(CN2CCCC(C(=O)Nc3cccc(-c4cc5ccccc5[nH]4)c3)C2)c1C (centres undefined)	-2.1	-13%	2%	9%	-2	-14	?
COC(=O)CNc1n[nH]c(=S)[nH]c1=O	0.0	50µM*	?	?	-10	0	-1.8%

An excerpt of these results, as labelled records.
O=C(O)c1cccc(Cn2c(Cl)c(/C=N/NC(=O)c3ccccc3O)sc2=O)c1
  Menin-MLL FL inh = 19	Sfp inh = 12%	gsp antagonist = -2%	gsp ag = 29%	TRPV1 potentiator = /	CtBP-E1A blk = -21	ClpP mod = -3.2%

CC[C@@H](C)C(C(=O)N1CCN(C(=O)OC(C)(C)C)CC1)n1cc(-c2cn([C@@H](C)C(=O)N3CCN(C(=O)OC(C)(C)C)CC3)nn2)nn1 (some centres undefined)
  Menin-MLL FL inh = -0.8	Sfp inh = -4%	gsp antagonist = 9%	gsp ag = /	TRPV1 potentiator = 6	CtBP-E1A blk = -4	ClpP mod = -2.4%

Next entries:
Structure	Menin-MLL FL inh	Sfp inh	gsp antagonist	gsp ag	TRPV1 potentiator	CtBP-E1A blk	ClpP mod
COc1ccc(S(=O)(=O)N2CCC3(CC2)OCCN3S(=O)(=O)c2c(C)cc(C)cc2C)cc1	/	/	-18%	?	13	10	0.7%
CCOP(=O)(OCC)C(NC(=O)C(F)(F)F)c1ccccc1 (centres undefined)	0.7	?	10%	3%	2	3	-1.2%
CCOC1=NN(c2ccc(Cl)cc2)C(=O)/C1=C\N(C)C	-9.8	21%	-22%	25%	9	-23	/
COc1cc(/C=C2/SC(=S)N(CC(=O)NC(C)(C)C)C2=O)cc(OC)c1OC	10	-18%	-8%	23%	-6	12	0.8%
COc1ccc(CCc2cc(OC)cc(=O)o2)cc1	6.6	-5%	-10%	16%	-15	3	0.9%
CN(C)c1nc(NC(C)(C)C)nc(NC(C)(C)C)n1	1.1	19%	3%	6%[15.4 µM]	-4	18	/
COc1cc(/C=C2\CC/C(=C\c3cc(OC)c(O)c(OC)c3)C2=O)cc(OC)c1O	?	45µM*	5%	-4%	1	-5	-0.9%
O=C1[C@@H](Oc2ccccc2)[C@@H](c2ccncc2)N1c1ccccc1	/	/	-10%	/	/	7	0.0%
Cc1cc(-n2c(C)cc(C(=O)CSc3nncn3C(C)C)c2C)no1	/	/	-10%	-22%	?	1	16%
OCC[C@H]1C[C@@H](O)[C@H](O)[C@]2(Cc3ccccc3O2)O1	/	/	5%	-70%[inhibitor]	3	8	-0.4%
Cc1cccc(C(=O)NNS(=O)(=O)c2ccc(F)cc2)c1	-9.3	-3%	3%	?	-6	-13	/
O=S(=O)(c1cnccc1N1CCN(/N=C/c2ccc(Br)cc2)CC1)N1CCCCC1	2.3	7%	1%	0%	13	5	-3.7%
NNC(=O)c1[nH]c2ccccc2c1-c1ccccc1	-4.1	-4%	15%	7%	?	/	-14%
N#CCc1nc(C(c2ccccc2)c2ccccc2)no1	?	9%	8%	-1%[15.4 µM]	21	-19	/
Cc1c(N2C(=O)CS/C2=N\N=C\c2ccccc2O)c(=O)n(-c2ccccc2)n1C	3.4	6%	-4%	-13%	0	6	-2.0%
CC(=O)Oc1ccccc1C1C[C@]2(C)CC(=O)NC2N1C(C)=O (some centres undefined)	-1.5	9%	6%	2%	-18	6	-0.7%
O=C(NCc1ccccc1)c1csc(-c2cccnc2)n1	0.4	13%	2%	8%[15.4 µM]	-19	3	-4.9%
COc1ccc(C(=O)C(C)OC(=O)C2CC3CCCC(C2)C3=O)cc1 (centres undefined)	/	/	/	-46%[inhibitor]	/	-1	-2.8%
CCN1CCCC1CNC(=O)c1cc2ccc(OC)cc2[nH]1 (centres undefined)	1.4	3%	-3%	12%	3	0	3.9%
